High-throughput results (PubChem)
Sfp inh: qHTS Assay for Inhibitors of Bacillus subtilis Sfp phosphopantetheinyl transferase (PPTase); Biochemical Sfp PPTase activity, qHTS; Potency, µM, for inactives: max response, negative = inhibition, actives largely listed as inhibitors; hit rate 3.5% among 310,000; AID 1490, 2009; active means well fitted inhibition curve with a large enough effect; inconclusive means small, poorly fitted or top-dose-only effect, or another doubt; inactive means no such curve, though single readings can be large or run the other way;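 further: the enzyme is Sfp with the accession as filed and its product quenches rhodamine fluorescence; potency means the concentration at half of the fitted maximal effect; 0% = enzyme reaction without inhibitor and -100% = no enzyme wells; top concentration of the series not given in the record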
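Sfp 15 nM + cpd, 15 min RT; start w/ rhodamine-CoA 5 uM, BHQ-2-YbbR 12.5 uM (final); 50 mM Hepes pH 7.6, 10 mM MgCl2, 0.01% NP-40, 0.01% BSA; read 525/598 nm at 0 and 30 min.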
ClpP mod: qHTS Assay for Activators of ClpP; purified B. subtilis ClpP, FRET peptide cleavage, 20 min; hit rate 1.9% among 340,000; ATP-dependent Clp protease proteolytic subunit (Bacillus subtilis (strain 168)), P80244; Potency, µM (top dose mostly 57.5 µM), for the others: at the top dose activity change, negative = active; active = well fitted falling curve with a large enough effect; inconclusive = small, poorly fitted or top-dose-only effect; inactive = no such curve, though single readings can be large or run the other way; further: potency means the concentration at half of the fitted maximal effect; the source files actives as falling curves though it sought activators and does not explain the sign; nearly all actives have a fitted effect of over 65% in size; many hits overshoot -100%
Target sequence (P80244 whole entry, looked up): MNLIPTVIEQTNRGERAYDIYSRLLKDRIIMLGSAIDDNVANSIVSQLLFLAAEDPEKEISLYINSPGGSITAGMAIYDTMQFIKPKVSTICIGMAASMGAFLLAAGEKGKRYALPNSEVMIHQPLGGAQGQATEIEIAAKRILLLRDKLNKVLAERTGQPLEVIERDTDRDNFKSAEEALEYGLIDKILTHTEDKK
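FRET quenching reversal measured ClpP activation: 10 microg/mL B. subtilis ClpP at pH 8 with the FRET-FV decapeptide, read at 430 nm after 320 nm excitation. The 20-min minus 0-min signal was scaled between DMSO/no-enzyme wells and ADEP (5.8 microM final).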
gsp antag: qHTS for Antagonists of gsp, the Etiologic Mutation Responsible for Fibrous Dysplasia/McCune-Albright Syndrome: qHTS; hit rate 0.4% among 340,000; AID 624288, 2012; Potency, µM (series often up to 76.9 µM), inactives show at the top dose activity change, negative = inhibition, actives largely listed as inhibitors; gsp-mutant cells, cAMP HTRF, 30 min; control for the full effect not named in the record; active = falling curve of any shape with a large fitted effect; inconclusive = falling curve, mostly with a smaller effect; inactive = flat or rising curve; cell line not stated here;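 further: intracellular cAMP measured with PDE inhibitor Ro 20-1724 present during compound exposure; potency means the concentration at half of the fitted maximal effect; on the % scale 0 is the no-effect control and ±100 the full control effect; nearly all actives have a fitted effect of over 65% in size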
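HTRF cAMP measurement after 30 min RT detection following 30 min, 37C compound treatment alongside […] (added as 300 uM solution) in G418-selected cells seeded at 2000/well and grown 16–24 h.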
TRPV1 PAM: HTS Assay for Compounds that Act as Potentiators of the Vanilloid Receptor 1; Transient receptor potential cation channel subfamily V member 1 (Homo sapiens), Q8NER1; TRPV1-expressing cells, Fluo-8 calcium influx, capsaicin EC20 potentiation; host cell line not named in the record; control for the full effect not named in the record; potentiation, % at 8.33 µM; hit rate 0.02% among 320,000; AID 540277, 2011; active means potentiation above 80%; inconclusive means 30% to 80%; inactive means below 30%; further: 0% is about no effect
Target sequence (Q8NER1 whole entry, looked up): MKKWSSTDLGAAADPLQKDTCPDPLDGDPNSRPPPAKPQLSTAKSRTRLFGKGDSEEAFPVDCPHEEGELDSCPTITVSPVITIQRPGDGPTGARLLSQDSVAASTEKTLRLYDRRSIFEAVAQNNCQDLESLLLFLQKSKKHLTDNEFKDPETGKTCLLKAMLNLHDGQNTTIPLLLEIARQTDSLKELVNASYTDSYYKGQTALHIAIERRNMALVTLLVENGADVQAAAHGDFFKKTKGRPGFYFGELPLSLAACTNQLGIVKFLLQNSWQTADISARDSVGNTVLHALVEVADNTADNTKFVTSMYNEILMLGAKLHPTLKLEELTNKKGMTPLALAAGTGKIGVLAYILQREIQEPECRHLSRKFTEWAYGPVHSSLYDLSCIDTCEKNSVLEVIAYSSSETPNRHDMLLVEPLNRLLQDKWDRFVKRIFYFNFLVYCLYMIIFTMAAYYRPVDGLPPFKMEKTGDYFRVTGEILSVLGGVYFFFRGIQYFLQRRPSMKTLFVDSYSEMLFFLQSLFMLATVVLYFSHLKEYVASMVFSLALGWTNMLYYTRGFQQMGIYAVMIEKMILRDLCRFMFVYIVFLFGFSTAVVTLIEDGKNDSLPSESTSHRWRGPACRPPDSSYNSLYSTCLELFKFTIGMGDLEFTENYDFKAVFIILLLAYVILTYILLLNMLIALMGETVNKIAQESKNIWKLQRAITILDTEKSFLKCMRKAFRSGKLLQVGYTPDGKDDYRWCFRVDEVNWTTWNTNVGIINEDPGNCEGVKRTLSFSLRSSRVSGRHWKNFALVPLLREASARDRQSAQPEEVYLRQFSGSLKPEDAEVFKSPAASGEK
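Cells expressing TRPV1 were dye-loaded with Fluo-8 and read kinetically: 10 s baseline, 3 min after compound (agonist portion), then 2 min after EC20 capsaicin (allosteric enhancer portion). Calcium-bound dye fluorescence at 480/520 nm.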
CtBP-E1A inh: qHTS Assay for Inhibitors of the CtBP/E1A Interaction. hit rate 0.49% among 340,000. AlphaScreen GST-E1A/His-CtBP binding, 1536-well; active compounds read low; control for the full effect not named in the record. activity change, % (test concentration not listed). CtBP / adenovirus E1A interaction (AlphaScreen); in the data active means activity change below about -65%; inconclusive means about -30% to -65%; inactive means above about -30%; further: on the % scale 0 is the no-effect control and ±100 the full control effect
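GST-E1A and His-tagged CtBP (125 nM each as 5X stock) were preincubated with pin-transferred compound for 2 h at 37 °C in the dark, then glutathione donor and nickel acceptor beads were added for 1 h before AlphaScreen reading.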
Menin MLL FP FL: qHTS Assay for Inhibitors Targeting the Menin-MLL Interaction in MLL Related Leukemias: Competition With Fluorescein Labeled MLL-derived Peptide. 290,000 tested, under 10 active. FP activity change, % at 61.4 µM. Fluorescence polarization, fluorescein-MLL peptide displacement from menin; inconclusive = falling polarisation curve, or a change in total fluorescence; inactive = total fluorescence flat and polarisation flat or rising; no compound was filed as active; the % refers to the polarisation; negative = inhibition;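 further: % of control where 0% means no effect; inhibitors lower the polarisation; unlabelled MLL peptide was the positive control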
gsp ag: qHTS for Agonist of gsp, the Etiologic Mutation Responsible for Fibrous Dysplasia/McCune-Albright Syndrome: qHTS; gsp mutant cells, cAMP HTRF, 30 min; control for the full effect not named in the record; Potency, µM (highest dose often 76.9 µM), for inactives: top-dose activation (cAMP increase), actives largely listed as activators; hit rate 0.13% among 340,000; AID 624287, 2012; active = well fitted activation curve with a large enough effect; inconclusive = small, poorly fitted or top-dose-only effect, or another doubt; inactive = no such curve, though single readings can be large or run the other way; cell line not stated here;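 further: phosphodiesterase inhibitor Ro 20-1724 added with compounds to block cAMP breakdown; potency means the concentration at half of the fitted maximal effect; nearly all actives have a fitted effect of over 60% in size; about a fifth of the inactives were tested at one dose only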
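Cells stably selected in G418 were plated at 2000/well, grown 16-24 hr, then given compounds in DMSO with the PDE inhibitor […] (300 uM solution added) for 30 min at 37C; cAMP was read by HTRF.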
An asterisk follows results filed as active; ? = inconclusive; nt = no result given; & = joins results of further samples; [ ] = another dose, or the depositor's remark.

SMILES	Sfp inh	ClpP mod	gsp antag	TRPV1 PAM	CtBP-E1A inh	Menin MLL FP FL	gsp ag
NC(=O)N/N=C/c1cccc(OCc2ccc(F)cc2)c1	8%	nt	6%	-7	2	-3.2	3%[15.4 µM]
Cc1cccc2c1nc(-c1ccccc1)n1nnnc21	12%	311%	12%	-1	6	1.4	29%
CCCN(CC(=O)Nc1ccccc1OC)C(=O)c1nc2nc(C)ccn2n1	nt	0.1%	3%	nt	-3	nt	-6%[15.4 µM]
O=S(=O)(c1cc(Cl)ccc1Cl)N1CCCC1	-5%	-0.5%	7%	13	1	0.8	1%
COc1cccc(NC(=O)c2ccc3c(c2)N(CC(=O)N2CCOCC2)C(=O)C(C)(C)O3)c1	7%	nt	-6%	-26	3	-1.6	?
COC(=O)CCCC1=CC2=CC(=O)C(C)(OC(=O)c3cccs3)C(=O)C2=CN1Cc1ccco1 (centres undefined)	?	1.8%	-9%	?	-8	-13[11.7 µM]	nt
COc1ccccc1N1CCN(C(=O)C(=O)c2c[nH]c3ccccc23)CC1	3%	4.6%	1%	-24	nt	nt	-5%
Cc1ccc(S(=O)(=O)N2CCC(C(=O)OCc3ccccc3)CC2)cc1C	nt	nt	-3%	27	8	nt	-4%[15.4 µM]
COc1cccc(CNS(=O)(=O)c2ccc3c(c2)oc(=O)n3C)c1	-1%	-4.7%	4%	3	-3	nt	36%
CC(C)CNS(=O)(=O)c1ccc2c(c1)OCCO2	13%	-0.5%	4%	7	5	2.9	5%
CCCOc1nc2c(c(=O)n(C)c(=O)n2C)n1CCC	-4%	-6.8%	1%	3	2	0.2	?
COCCCn1c(=O)c2sccc2n(Cc2cccc(C)c2)c1=O	6%	-3.1%	-4%	0	nt	2.7	?
Fc1ccc(C(c2nnnn2Cc2cccs2)N2CCN(c3ccccc3)CC2)cc1 (centres undefined)	3%	-1.8%	11%	9	-14	2.7	-3%
O=C(Nn1cnnc1)c1ccccc1CCc1ccccc1	21%	-0.4%	-6%	11	0	0.3	-1%
CSCCC(NC(=O)c1cc(S(=O)(=O)N2CCOCC2)ccc1C)c1nc2ccccc2[nH]1 (centres undefined)	nt	1.0%	-1%	nt	4	nt	3%
CCc1ccc(OCC(=O)N/N=C\c2ccco2)c([N+](=O)[O-])c1	-7%	-2.2%	-1%	4	2	4.2	?
C=CCn1c(-c2ccco2)n[nH]c1=S	-15%	-29%	0%	2	-2	2.5	0%
COC(=O)c1cc(Br)c(=O)n(CCc2ccc(O)cc2)c1	14%	0.0%	-2%	-5	-3	-2.3	0%
COc1ccc(N2CCN(CCNC(=O)c3ccc4nc5ccccc5c(=O)n4c3)CC2)cc1	11%	-28%	-2%	18	?	-0.1	24%
OC1(c2ccc(Cl)cc2)CCN(Cc2cn[nH]c2-c2ccccc2)CC1	12%	nt	2%	5	2	-2.9	34%

Just gsp antag and CtBP-E1A inh, for some of the entries so far:
| mol | gsp antag | CtBP-E1A inh |
| --- | --- | --- |
| CCc1ccc(OCC(=O)N/N=C\c2ccco2)c([N+](=O)[O-])c1 | -1% | 2 |
| COc1ccc(N2CCN(CCNC(=O)c3ccc4nc5ccccc5c(=O)n4c3)CC2)cc1 | -2% | ? |

Returning to the listing; the 2 compounds before the break are reprinted first.
SMILES	Sfp inh	ClpP mod	gsp antag	TRPV1 PAM	CtBP-E1A inh	Menin MLL FP FL	gsp ag
COc1ccc(N2CCN(CCNC(=O)c3ccc4nc5ccccc5c(=O)n4c3)CC2)cc1	11%	-28%	-2%	18	?	-0.1	24%
OC1(c2ccc(Cl)cc2)CCN(Cc2cn[nH]c2-c2ccccc2)CC1	12%	nt	2%	5	2	-2.9	34%
CC(=O)Nc1ccc(NC(=O)C2CCN(c3ccc(C(F)(F)F)cn3)CC2)cc1	13%	nt	3%	5	9	-9.7	-6%
Cc1ccc2c(c1)N(C(=O)CCC(=O)N1CCN(c3ccccc3)CC1)CCO2	8%	-1.0%	-10%	?	3	0.4	-51%[inhibitor]
CCN(CC(=O)Nc1c(F)cccc1F)C(=O)CN1C(=O)C2CCCCC2C1=O (centres undefined)	nt	0.9%	2%	6	1	nt	-26%
c1ccc(CN2c3ccccc3-c3nc4ccccc4n3C2c2ccccn2)cc1 (centres undefined)	-12%	-1.4%	-4%	-7	-1	2.9	-17%
CCOC(=O)Cc1cc(=O)n(-c2nc3ccccc3s2)[nH]1	-21%	-2.1%	-12%	1	-14	21	4%
O=c1cc(N2CCN(c3ccc(F)cc3)CC2)[nH]c(=O)n1C1CCCCC1	6%	-1.4%	2%	-6	6	4.9	17%
Cn1c(=O)c2nc(-c3ccccc3)oc2c2ccccc21	0%	11µM*	-16%	-10	-17	3.0	-6%
CCOC(=O)N1CCN(C(=O)CNCc2cccs2)CC1	-29%	0.0%	2%	nt	7	1.0	-22%
CCOC(=O)c1cnc2scnn2c1=O	-8%	?	13%	22	1	-1.3	-7%
CCCc1cc2c(=O)c(-c3ccccn3)c(C)oc2cc1O	12%	-16%	2%	-3	12	1.2	-26%
Cc1cc(C)c(/C=N/NC(=O)c2nnn(-c3nonc3N)c2CN2CCC(C)CC2)c(C)c1	14%	nt	?	6	4	0.0	-23%
O=C(O)[C@@H]1CCCN1C(=O)c1ccccc1N1C(=O)[C@@H]2Cc3c([nH]c4ccccc34)C(c3cccc(Cl)c3)N2C1=O (some centres undefined)	5%	-7.6%	4%	3	4	-2.5	nt
COc1ccc(CN2CCN(Cc3ccc4cc(F)ccc4n3)CC2CCO)c(C)c1C (centres undefined)	3%	nt	-18%	1	0	0.5	-55%[inhibitor]
COc1ccc(C2=NN(c3ccccc3)C(c3ccc(OC)c(OC)c3)C2)cc1 (centres undefined)	-17%	3.9%	7%	12	28	7.4	?
CCNc1nc(OC)nc(SCC(N)=O)n1	0%	2.2%	6%	15	-2	4.0	?
CS(=O)(=O)c1ccc(Cl)c(NC(=O)CCCSc2ccccc2)c1	18%	nt	-5%	26	3	1.4	-10%[15.4 µM]
Cc1ccc(N=N/C(=C\O)C(=O)c2ccncc2)cc1	-4%	0.5%	-22%	-14	1	1.1	?
Cc1ccc(C(=O)N2CCN(c3ccccc3)CC2)cc1S(=O)(=O)N1CCOCC1	5%	-4.6%	7%	-6	-16	0.4	-21%[15.4 µM]
Cc1ccc(S(=O)(=O)NCc2ccccn2)cc1C	4%	-4.3%	6%	2	nt	2.1	-42%
CCCCCCc1c(O)nc(SCC(=O)O)[nH]c1=O	?	-1.1%	4%	-9	3	1.0	13%
CC(C)(O)c1cc2ccc(C#CCCN3C(=O)c4ccccc4C3=O)cc2c(=O)o1	nt	-7.4%	6%	nt	-24	nt	6%
CC(C)Cn1c(SCC(=O)N2CCc3ccccc3C2)nc(O)cc1=O	nt	0.4%	-10%	nt	0	nt	-40%
OCCNc1c2ccccc2nc2c(F)c(F)c(F)c(F)c12	7%	0.5%	-7%	-4	5	?	-14%[15.4 µM]
CCCc1cc(=O)[nH]c(SCC(=O)N(Cc2ccccc2)C(C)C)n1	10%	-3.1%	-5%	13	-1	4.3	-6%
C/C=C/c1ccc(OCC(=O)O)c(OC)c1	13%	nt	-2%	-2	0	-2.0	11%[15.4 µM]
COc1ccc(S(=O)(=O)NCCOc2ccc(Cl)cc2)cc1	nt	3.8%	8%	-2	nt	nt	-6%
O=C(CN1C(=O)NC2(CCCCCCC2)C1=O)NCc1ccc2c(c1)OCO2	17%	0.8%	-1%	11	3	-1.0	3%
O=[N+]([O-])c1ccc(Oc2cccc3cccnc23)c([N+](=O)[O-])c1	?	-1.5%	-4%	-6	-79*	?	16%
COc1ccc(CNC(=O)CCNS(=O)(=O)c2ccc3c(c2)oc(=O)n3C)cc1	5%	-2.1%&1.7%	-8%	7	nt	nt	10%
O=C(Cc1cccs1)NCCc1csc(-c2ccccc2)n1	20%	nt	-5%	3	4	9.6	13%[15.4 µM]
CCN1C(=O)/C(=C/c2nc3ccccc3c(=O)[nH]2)c2ccccc21	-1%	-3.9%	-15%	1	-8	1.1	36%
COc1cc(/C=C/C(=O)O)ccc1OS(=O)(=O)c1c(C)c(C)cc(C)c1C	nt	-1.7%	-20%	-2	-26	nt	6%
CCSc1ccc(-c2nn(-c3ccccc3)cc2/C=C(/C#N)C(=O)NC)cc1	5%	?	?	-3	8	1.7	?
O=C1Cn2c(nc3ccccc32)N1c1cccc(C(F)(F)F)c1	17%	3.4%	4%	-21	6	4.0	?
Cc1ccc(C(=O)COC(=O)c2cc(Cl)nc3ccccc23)cc1C	3%	?	-17%	-9	6	2.3	-4%
COc1cc(N)c(C(=O)c2nccc3cc(OC)c(OC)cc23)cc1OC	15%	-1.1%	7%	-17	-11	-1.3	16%[15.4 µM]
Cc1ccc(CN(C(=O)c2ccc(Cl)c([N+](=O)[O-])c2)C2CCS(=O)(=O)C2)o1 (centres undefined)	17%	-1.6%	-23%	-4	0	5.2	-43%[inhibitor]
CCOC(=O)C1CCCN(C(=O)c2cc3cc(F)ccc3[nH]2)C1 (centres undefined)	-11%	-2.9%	-7%	18	1	-1.5	11%
O=C(CNC(=O)c1cccs1)OCC(=O)c1cccs1	17%	3.1%	0%	?	6	0.7	-1%
O=C(COC(=O)c1cc(Br)ccc1O)NNC(=O)c1ccc(Cl)cc1	nt	-4.9%	11%	0	-1	nt	-12%
NNc1ccc2nnc(C(F)(F)C(F)(F)C(F)(F)F)n2n1	12%	nt	13%	-2	1	-2.4	-9%
CC(C)CCN1CCN=C1N(C)C	nt	0.2%	12%	10	8	nt	nt
COc1ccc(-c2csc(NC(CO)c3nc4ccccc4n3CCCO)n2)cc1 (centres undefined)	nt	-4.1%	9%	nt	-5	nt	9%
CC(C)C(=O)Nc1ccc(C(=O)CN2C(=O)NC3(CCOc4ccccc43)C2=O)cc1 (centres undefined)	nt	-1.7%	-11%	24	-4	nt	14%
